Screens from PubChem.
Calb FLC = C. albicans growth modulation with fluconazole. 0.57% of 300,000 active. AID 1979. growth inhibition, % (concentration not given with the values). C. albicans CaCi-2 (fluconazole-resistant clinical isolate) + fluconazole, Alamar Blue growth, 48 h;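 active = most replicates above 75%; inconclusive = exactly half above 75%; inactive = most below 75%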;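 also: all wells also contain fluconazole at 8 µg/ml as a sub-toxic cotreatment; 0% = median of DMSO wells and 100% = median of geldanamycin control wells; wells of about 8 µL received 7.5 nL stock; the first replicate is given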
T cruzi inh = blocks replication of Trypanosoma cruzi; T. cruzi beta-gal in NIH3T3, luminescence, 90 h; inhibition, % (concentration not given with the values); 1.4% of 300,000 active; AID 1885;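 active = mean inhibition across valid replicates above about 55%, limit read from the data; inconclusive = mean below that limit but half or more replicates reach it; inactive = mean below it, under half of replicates reach it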;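 also: signal also drops with host cell toxicity which is not excluded here; 0% = plate median of DMSO wells and 100% = zero luminescence signal; higher percent means less beta-gal luminescence so fewer parasites; stock transfer was 50 nL into about 50 µL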
Bfl-1 A1 inh = inhibitors of the anti-apoptotic protein A1, read as caspase activation. caspase activation, % (concentration not given with the values). 0.066% of 330,000 active. MEF A1-2A-BIM cells, Caspase-Glo 3/7 luminescence, 3 h; percent of clofoctol response, vehicle zero;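 active = over half of replicate activation scores above 10%, or exactly half above 10 with the replicate mean above 10; inconclusive = replicate mean below 10 yet half the replicates above 10; inactive = over half of replicates below 10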;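 also: wells of about 30 µL received 50 nL stock; many hits fall short of the cut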
ALR H2O2 inh = human ALR oxidase inhibition via reduced H2O2 | AID 485317 | purified ALR, DTT oxidation, H2O2 HRP-luminol luminescence | 3.8% of 290,000 active | P55789 | inhibition, % (test concentration not listed);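 active = mean and each replicate at 75% or more; inconclusive = only one of the two met; inactive = neither met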;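 also: stock transfer was 7.5 nL into about 7.5 µL; 0% = neutral wells and 100% = wells with inactivated enzyme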
Target sequence (P55789 whole entry, looked up): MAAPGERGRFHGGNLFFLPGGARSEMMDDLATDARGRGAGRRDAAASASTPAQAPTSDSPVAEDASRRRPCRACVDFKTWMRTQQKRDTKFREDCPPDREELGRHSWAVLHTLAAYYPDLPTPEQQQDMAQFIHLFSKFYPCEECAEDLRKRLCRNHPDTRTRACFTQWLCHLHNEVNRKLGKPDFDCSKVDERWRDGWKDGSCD
Beta apoptosis = blocks beta cell apoptosis | INS-1E cytokine-induced death, ATP luminescence, 48 h; percent of positive-control rescue, neutral wells zero | protection from apoptosis, % (no concentration beside the values) | 0.8% of 300,000 active | AID 435005;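 active = all replicates at 75% or more, or half of them and the mean; inconclusive = half reach 75% but not the mean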;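 also: 0% = cytokine-treated negative control wells and 100% = positive control rescue; higher means more ATP so stronger rescue from cytokine killing; wells of about 40 µL received 100 nL stock; the first replicate is given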
LANA-H2A inh = blocks KSHV LANA binding to histone H2A/H2B. Q9QR71. AID 2629. inhibition, % (test concentration not listed). cell-free LANA-H2A/H2B peptide, fluorescence polarization. 0.6% of 320,000 active; in the data active = inhibition mostly above about 10%, no sharp cut-off; inactive = mostly below about 6.7%;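 also: stock transfer was 7.5 nL into about 10 µL; 0% = median of vehicle wells and 100% = median of positive control wells; one replicate is shown; the record names a cut of 25% in any replicate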
Ecoli rRNA inh = inhibitors of bacterial rRNA selective over humanized ribosomes; 1.6% of 350,000 active; GFP signal change (wild-type ribosome), % (concentration not given with the values); E. coli WT GFP vs humanized-ribosome RFP mutants, fluorescence, 24 h; hits give low values; DMSO median 0, no signal -100; AID 720706;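 active = significant combined selectivity score with lowered wild-type GFP, culture density cut under 30%, mutant RFP and density less affected; inactive = any of these conditions unmet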; also: one replicate is shown; some compounds called inactive have numbers as strong as hits
B2AR ag = agonists of human beta-2 adrenergic receptor inducing internalization. Am2.2-beta2AR cells, FAP receptor internalization, flow cytometry; reference of the scale not given here. response, % (concentration not given with the values). P07550. 0.43% of 340,000 active;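 active = response above a set limit, near 3 SD of response in nonfluorescent compounds, cut at about 42% in these data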;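 also: stock transfer was 100 nL into about 11 µL; a reference agonist was the positive control; negative values mostly stem from fluorescent compounds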
Target sequence (P07550 whole entry, looked up): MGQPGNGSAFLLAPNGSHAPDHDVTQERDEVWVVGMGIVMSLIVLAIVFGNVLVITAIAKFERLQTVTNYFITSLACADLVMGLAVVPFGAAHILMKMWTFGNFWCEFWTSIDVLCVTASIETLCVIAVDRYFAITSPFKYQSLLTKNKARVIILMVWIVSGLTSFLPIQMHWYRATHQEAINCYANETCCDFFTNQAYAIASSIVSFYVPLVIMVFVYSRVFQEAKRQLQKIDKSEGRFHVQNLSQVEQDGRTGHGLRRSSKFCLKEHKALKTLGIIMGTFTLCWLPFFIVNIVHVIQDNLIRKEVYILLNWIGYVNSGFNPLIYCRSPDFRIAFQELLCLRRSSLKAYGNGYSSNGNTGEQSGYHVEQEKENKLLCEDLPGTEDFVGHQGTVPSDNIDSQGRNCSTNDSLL
Ecoli rRNA inh OD600 = recorded beside Ecoli rRNA inh, whose call it bears; OD600 change, %; measured here: OD600 growth;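 optical density of the mix in the first replicate; 0 = DMSO median and -100 = no signal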
Ecoli rRNA inh RFP = further read-out of Ecoli rRNA inh, marked with its call; RFP signal change, %; measured here: RFP humanized mutant strains;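 first replicate; 0 = DMSO median and -100 = no signal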
* = called active by the depositor; ? = inconclusive; nt = no result given. These rows are one share of the data; rates above refer to the full screens.

structure	Calb FLC	T cruzi inh	Bfl-1 A1 inh	ALR H2O2 inh	Beta apoptosis	LANA-H2A inh	Ecoli rRNA inh	Ecoli rRNA inh OD600	Ecoli rRNA inh RFP	B2AR ag
CCOC(=O)/C(C#N)=C\c1c(OCC)n(CC)c2ccccc12	2.0	29.0	0.5	-2.7	-5.7	-18.9	nt	nt	nt	1.9
O=C(COc1ccc(Cl)cc1)N1CCN(c2cccc(C(F)(F)F)c2)CC1	-5.8	-6.0	3.0	-5.8	-10.2	-2.6	nt	nt	nt	-1.9
O=C(CSCc1ccc(F)cc1)NCc1ccc(F)cc1	-9.9	-5.3	-0.4	nt	5.8	1.1	-12.4	-3.1	-2.0	5.7
COc1ccc(CN=CC2=C(O)CNC2=O)cc1OC	-7.9	-21.6	0.3	-0.6	-7.6	4.7	nt	nt	nt	-3.9
Cc1cccc([C@@H]2[C@@H]3C(=O)N(Cc4ccccc4)C(=O)[C@@H]3[C@]3(CC(C)C)C(=O)N(c4cccc(F)c4)C(=O)N23)c1	21.0	-17.0	-0.3	6.7	3.5	1.4	0.8	5.6	-2.6	-3.0
CS(=O)(=O)N(CC(=O)Nc1c(F)cccc1F)c1cccc([N+](=O)[O-])c1	-1.1	-0.6	-0.3	-2.7	-2.5	0.5	nt	nt	nt	1.7
COCC(C)n1c(SCC(=O)c2cc(C)n(C)c2C)nc2ccccc2c1=O (configuration not stated)	9.4	-2.9	-0.6	?	-0.4	-4.0	-0.5	1.2	6.7	-1.2
Cc1ccc(N/C=C/C(=O)c2ccc(C)cc2)cc1	0.0	6.8	-3.5	0.9	1.9	2.0	nt	nt	nt	9.3
Cc1ccc(C(=O)N/C(=C/c2ccco2)C(=O)NCCCn2ccnc2)cc1	-8.7	-2.8	-0.7	43.6	-6.8	1.9	nt	nt	nt	-13.2
c1cn2cc(CN3CCOCC3)nc2s1	-5.0	-9.7	0.8	-12.4	1.2	-3.0	nt	nt	nt	0.1
CCc1noc(C)c1C(=O)OCC(=O)NCc1ccc(Cl)cc1	nt	nt	-0.9	1.5	-2.5	-4.2	6.3	5.2	-1.1	1.8
CCS(=O)(=O)c1ccc2oc(SCC(=O)NC(C)C3CC4CCC3C4)nc2c1 (configuration not stated)	8.0	-3.8	0.8	-2.3	-5.4	-0.5	nt	nt	nt	0.8
COc1ccc(CCNc2oc(Cc3ccccc3)nc2C#N)cc1OC	-2.4	7.8	0.6	-6.6	2.6	-0.3	nt	nt	nt	2.1
Cc1[nH]nc2c1[C@@H](c1ccccc1[N+](=O)[O-])C(C#N)=C(N)O2	-8.4	-8.0	1.4	-26.2	0.9	7.1	-1.2	-10.2	1.3	10.1
COc1ccccc1N1C(=O)CC(N2CCN(c3ccc(Cl)cc3)CC2)C1=O (configuration not stated)	0.2	-9.2	-0.6	38.4	-2.3	-1.3	23.6	17.4	1.4	-11.4
CCOc1cc(/C=C2/NC(=O)N(Cc3ccccc3F)C2=O)ccc1O	-3.6	-12.1	1.0	66.7	-3.4	-1.6	nt	nt	nt	7.7
Fc1cccc(Cl)c1CSc1nnc(-c2ccncc2)o1	-3.6	-0.5	-3.5	-2.2	-1.3	2.7	-15.1	-16.8	-3.1	-6.9
CCCSc1nnc2[nH]c(=O)cc(N)n12	0.0	-16.2	0.1	2.5	-8.0	4.6	nt	nt	nt	-8.3
N/C(=N\OCC(=O)Nc1ccccc1)c1nonc1N	6.7	-7.6	-0.6	-1.9	4.6	-0.5	6.2	12.3	-1.8	15.5
Nc1nc(-c2ccc(NC(=O)c3ccco3)cc2)cs1	1.5	-14.8	-1.5	nt	-2.1	2.5	3.4	-1.3	3.1	-1.2
CCCCCn1c(=O)[nH]c2cc(C(=O)NCCN3CCC(C)CC3)ccc2c1=O	-0.3	4.9	1.7	-2.4	0.1	-0.2	nt	nt	nt	-1.3
CC/C(=N\NC(=O)c1ccc(N2CCCC2=O)cc1)c1ccccc1	-1.0	-12.5	0.3	-15.3	-2.0	2.8	7.0	7.5	-0.1	-12.1
CCn1c(O)c(N=NC(=O)CNC(=O)Cc2ccccc2)c2ccccc21	-19.2	-10.5	1.0	12.1	-2.9	-3.5	-0.7	-4.6	-2.6	-0.7
COc1ccc(N2CCN(C(=O)c3ccc(C)cc3)CC2)c([N+](=O)[O-])c1	3.3	1.7	-0.2	-1.6	0.3	-3.6	nt	nt	nt	3.2
Cn1nc2c3ccccc3n(Cc3ccccc3)c2nc1=S	2.1	22.8	0.5	-1.1	12.4	-9.8	5.3	4.1	1.8	-10.0
CC(C)CC1(C(=O)NCCN2CCOCC2)C=CCN1C(=O)c1ccccc1 (configuration not stated)	-6.9	-13.8	-1.0	-6.7	1.6	0.8	9.7	11.4	-1.3	6.7
COC(=O)c1c(-c2ccccc2OC)sc2ccc(OC)cc12	nt	nt	-0.3	-17.1	-2.5	-3.1	-21.5	-36.1	-11.8	-3.4
O=C(CCN1CCN(CCO)CC1)Nc1ccc(Br)cc1	-10.4	1.5	0.2	-2.1	-4.1	-9.7	17.8	10.0	-1.0	-4.7
CCOC(=O)N1CCN(C(=O)c2cc(OC)cc(OC)c2)CC1	8.2	-3.7	-0.2	-5.9	nt	-0.6	nt	nt	nt	1.9
O=C(CCC(=O)OCC(=O)c1cccc([N+](=O)[O-])c1)NC1CCCCC1	12.2	-7.6	0.8	-6.1	1.0	-0.9	nt	nt	nt	-6.3
CCOC(=O)c1ccc(N=c2sc(C(=O)OC)cc(=O)n2-c2ccc(C(=O)OCC)cc2)cc1	-3.9	38.6	2.7	-29.3	23.8	-2.9	2.2	-0.3	-3.8	48.1*
Oc1[nH]c2ccccc2c1N=Nc1nc(Nc2ccccc2)nc(N2CCOCC2)n1	34.4	47.5	0.3	-1.1	12.2	-1.3	19.4	3.3	0.4	3.0
COc1ccc(OC)c2c1sc(=NC(=O)C1COc3ccccc3O1)n2C (configuration not stated)	7.3	29.3	-0.4	-1.9	0.8	3.7	20.1	-2.5	2.9	-4.3
O=C1c2cccc3cccc(c23)C(=O)N1c1nccs1	-13.4	nt	0.5	-5.7	7.4	7.1	nt	nt	nt	0.4
CCCSc1nc2sc3c(c2c(=O)n1CC)CC(C)(C)OC3	-7.5	10.4	0.5	-6.1	2.9	-4.4	-25.4	-28.4	-10.9	-9.7
Cc1ccc(C)c2sc(N)nc12	2.8	3.2	0.8	-5.7	-8.5	-0.6	-12.0	-4.5	-3.6	1.6
CN(C)CCCNCCCNC(=O)c1ccccn1	1.8	-8.9	-0.8	-9.2	-3.7	-1.2	nt	nt	nt	-4.3
CCc1ccc(S(=O)(=O)Nc2c(C)n(C)n(-c3ccccc3)c2=O)cc1	-3.3	-4.6	0.4	5.3	-1.0	-0.8	4.6	4.0	0.8	-0.9
CN1C(=O)NC(c2ccc(O)cc2)C2=C1CN(c1ccccc1)C2=O (configuration not stated)	-1.5	-6.0	-0.9	-4.6	-4.1	-8.5	-7.3	-1.3	-0.8	-5.5
O=C(COc1nsnc1N1CCOCC1)Nc1ccc([N+](=O)[O-])cc1	-5.4	8.9	-0.9	nt	7.8	-1.2	-2.9	5.4	1.3	-4.5
CCOc1ccc(/C=C(\C#N)C(=O)Nc2ccccn2)cc1	15.1	-11.4	-2.0	12.0	-5.6	0.6	8.4	-4.2	2.1	-2.8
CCOc1ccc(N2C(=O)c3cccnc3C2Nc2ccc(OC)cc2)cc1 (configuration not stated)	-8.2	0.6	0.0	34.6	2.6	0.2	nt	nt	nt	-9.6
O=C(CCCCCn1c(=O)[nH]c2ccccc2c1=O)NCCCN1CCN(c2ccccc2F)CC1	7.0	11.0	0.2	8.0	-3.0	-4.7	nt	nt	nt	-12.2
Cc1cc(OCC(=O)NCC(O)c2ccccc2)c2c(C)c(C)c(=O)oc2c1 (configuration not stated)	nt	9.1	0.0	-2.5	-0.8	-1.6	-11.6	-17.8	3.0	-9.5
COc1ccc(-n2c(=O)c3ccccc3n(CC(=O)NC3CCCC3)c2=O)c(OC)c1	11.3	-9.9	0.5	-6.2	2.2	1.1	nt	nt	nt	6.1
CC1CCCC(C)N1/N=C/c1cc(Br)c(O)c(Br)c1 (configuration not stated)	26.8	4.8	0.4	9.4	-4.3	-3.5	-9.2	-11.5	-7.1	nt
CCCCc1c(O)nc(SCC(=O)c2ccccc2)n(-c2ccccc2)c1=O	-7.8	-3.7	0.0	3.5	1.3	-4.3	-18.4*	-3.7*	6.6*	9.4
C/C(=N\NC(=O)C1(C)CC1(Br)Br)c1ccc(NC(=O)c2ccc(C)o2)cc1 (configuration not stated)	-31.6	6.4	-0.6	-2.3	nt	0.5	nt	nt	nt	10.0
O=C(CC1S/C(=N/N=C2CCCCCC2)NC1=O)Nc1ccc(Br)cc1F (configuration not stated)	20.2	-20.5	1.3	-1.8	-3.6	2.0	-2.0	-22.5	3.7	-3.7
CCC(Oc1cccc(Cl)c1)C(=O)N1CCCN(C)CC1 (configuration not stated)	1.7	-9.1	1.7	0.8	-9.1	-3.0	8.5	9.0	2.1	-6.6

Following part.
structure	Calb FLC	T cruzi inh	Bfl-1 A1 inh	ALR H2O2 inh	Beta apoptosis	LANA-H2A inh	Ecoli rRNA inh	Ecoli rRNA inh OD600	Ecoli rRNA inh RFP	B2AR ag
O=C(CSc1nnc(-c2ccccn2)n1Cc1ccco1)c1ccc(-c2ccccc2)cc1	-20.2	-17.6	-0.4	2.0	1.5	1.0	nt	nt	nt	-4.0
Cc1ccc(CN2C(=O)N/C(=C\c3ccc(-c4ccc(C(=O)O)cc4C)o3)C2=O)cc1	nt	nt	-0.5	21.8	7.3	-0.1	18.1	0.8	11.7	11.0
CCOC(=O)/C(=C\c1ccc([N+](=O)[O-])cc1)C(=O)c1cc(C(C)=O)c(Nc2ccccc2)s1	0.6	55.8*	46.4*	0.6	106.5*	1.4	nt	nt	nt	7.4
C/C(=C\C(=O)c1ccc(C)o1)Nc1ccc2c(c1)OCO2	-9.9	0.1	-1.3	1.5	6.5	-3.4	nt	nt	nt	-3.6
O=c1c2cn[nH]c2nc(SCc2ccccc2F)n1-c1ccc(Br)cc1	33.6	-1.2	1.0	-3.4	7.0	1.4	-16.2	-12.3	0.3	4.1
CC(C)(C)NC(=O)C(c1ccncc1)N(C(=O)Cn1nnc(-c2ccc(F)cc2)n1)c1cccc(F)c1 (configuration not stated)	-4.4	7.6	0.5	-0.4	-7.5	-2.3	8.9	8.9	-0.6	7.0
O=C(COC(=O)CCc1ccccc1)NC(c1ccccc1)c1ccccc1	-0.9	-10.0	0.0	2.6	1.5	2.2	7.0	-5.4	-0.9	25.6
C=CCN1C(=O)CSc2ccc(C(=O)NCCC3=CCCCC3)cc21	14.7	26.2	-1.5	-2.1	1.9	-7.3	nt	nt	nt	-1.1
CC(=O)c1nn(-c2cccc(Br)c2)cc1C(=O)c1ccc(Br)cc1	-7.1	-9.6	-0.1	-0.1	12.6	3.6	nt	nt	nt	3.2
